Bioassay records from PubChem.
TRPV1 potentiator – enhances activation of the human vanilloid receptor TRPV1; Q8NER1; TRPV1-expressing cells, Fluo-8 calcium influx, capsaicin EC20 potentiation; host cell line not named in the record; control for the full effect not named in the record; potentiation, % at 8.33 µM; 0.02% of 320,000 active; AID 540277; active means potentiation above 80%; inconclusive means 30% to 80%; inactive means below 30%; further: 0% is about no effect
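Fluo-8 calcium influx in TRPV1-expressing cells, kinetic read (ex 480/em 520 nm). Compound added and read 3 min for agonist activity, followed by capsaicin at EC20 final and 2 min further read for enhancement.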
PINK1 modulator – changes PINK1 expression; PINK1 immunofluorescence, high-content cytometry, 24 h; 0.2% of 410,000 active; AID 624263; Potency, µM (titrated, usually from 76.6 µM), inactives show at the top dose activation (PINK1 increase), hits mostly activators; active = well fitted activation curve with a large enough effect; inconclusive = small, poorly fitted or top-dose-only effect; inactive = flat fitted curve, though single readings scatter; cell line not stated here;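 further: potency means the concentration at half of the fitted maximal effect; % of control where 0% means no effect; nearly all actives have a fitted effect of over 65% in size; a mitochondrial uncoupler was the plate control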
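Stable cell line treated 24 h with compounds at 5 concentrations (CCCP controls), then fixed and immunostained for PINK1 plus nuclear and cell stains; PINK1 immunofluorescence quantified by laser-scanning microplate cytometry.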
Sfp inh – inhibitors of Bacillus subtilis Sfp phosphopantetheinyl transferase; Q9F4F7; Biochemical Sfp PPTase activity, qHTS; Potency, µM, for the others: max response, negative = inhibition, usual class: inhibitors; 3.5% of 310,000 active; active means well fitted inhibition curve with a large enough effect; inconclusive means small, poorly fitted or top-dose-only effect, or another doubt; inactive means no such curve, though single readings can be large or run the other way;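 further: the enzyme is Sfp with the accession as filed and its product quenches rhodamine fluorescence; potency means the concentration at half of the fitted maximal effect; 0% = enzyme reaction without inhibitor and -100% = no enzyme wells; top concentration of the series not given in the record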
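Fluorescence-quenching assay: 15 nM Sfp-PPTase preincubated 15 min at room temperature with compound, then 5 uM rhodamine-CoA and 12.5 uM BHQ-2-labelled YbbR peptide added. Fluorescence (ex 525/em 598 nm) read at start and after 30 min; difference gives rate.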
Six1-Eya2 inh – inhibitors of human Six1/Eya2 interaction | AlphaScreen GST-Six1/His-Eya2 binding, biochemical; active compounds read low; control for the full effect not named in the record | activity change, % (concentration not given with the values) | AID 651725 | Q15475+O00167 | 0.56% of 360,000 active; in the data active = activity change below about -65%; inconclusive = about -30% to -65%; inactive = above about -30%; further: on the % scale 0 is the no-effect control and ±100 the full control effect
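AlphaScreen with GST-Six1 and His-Eya2 (5X mix: 250 nM and 500 nM), glutathione donor and nickel acceptor beads; buffer 50 mM Tris pH 8.0, 300 mM NaCl, 1 mM TCEP; 1 h at 37 C in the dark.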
D2 potentiator – positive allosteric modulators of human D2 dopamine receptor. DiscoveRx D2 beta-arrestin cells, luminescence, 90 min; 100% = 57 uM dopamine signal. 0.23% of 360,000 active. potentiation, % (no concentration beside the values). P14416; active = potentiation of 50% or more; inconclusive = 30% to 50%; inactive = 30% or less;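 further: compound concentration not given in the record; tested on top of an EC20 dose of dopamine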
Target sequence (P14416 whole entry, looked up): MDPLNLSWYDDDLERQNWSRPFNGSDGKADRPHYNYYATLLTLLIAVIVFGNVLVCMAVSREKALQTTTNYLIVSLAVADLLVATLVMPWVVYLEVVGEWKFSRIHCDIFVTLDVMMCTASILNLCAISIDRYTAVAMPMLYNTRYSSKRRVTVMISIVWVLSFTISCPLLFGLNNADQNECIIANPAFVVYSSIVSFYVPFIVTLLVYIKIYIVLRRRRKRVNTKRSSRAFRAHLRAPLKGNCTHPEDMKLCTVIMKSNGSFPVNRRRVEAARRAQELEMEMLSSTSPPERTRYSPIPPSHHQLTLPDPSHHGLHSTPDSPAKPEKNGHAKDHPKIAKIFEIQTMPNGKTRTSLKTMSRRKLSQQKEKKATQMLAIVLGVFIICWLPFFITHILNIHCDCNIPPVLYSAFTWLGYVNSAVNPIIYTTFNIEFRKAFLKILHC
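D2 cells co-treated with compound plus 50 nM dopamine (EC20) for 90 min at 37 deg C to detect potentiation. Beta-arrestin recruitment was read as enzyme-fragment luminescence after 1 h at ambient temperature. Full response was set by 57 uM dopamine.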
D2 agonist – agonists of human D2 dopamine receptor (beta-arrestin); activation, % (concentration not given with the values); DiscoveRx PathHunter D2 beta-arrestin, luminescence, 90 min; 100% = 57 uM dopamine signal; 0.084% of 360,000 active; P14416; in the data active = activation above about 40%; inconclusive = about 15% to 40%; inactive = below about 15%; further: compound concentration not given in the record; the text of the record calls up to 30% inactive
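DiscoveRx PathHunter D2 beta-arrestin cells (2,100/well) attached overnight, then compound-stimulated 90 min at 37 C in HBSS/10 mM HEPES/0.1% Tween-20 buffer; beta-galactosidase complementation read by luminescence after 1 h at ambient temperature. Dopamine 57 uM final (EC100) as control.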
CtBP-E1A blk – blocks the CtBP interaction with E1A. AlphaScreen GST-E1A/His-CtBP binding, 1536-well; active compounds read low; control for the full effect not named in the record. activity change, % (test concentration not listed). 0.49% of 340,000 active. AID 651724; in the data active means activity change below about -65%; inconclusive means about -30% to -65%; inactive means above about -30%; further: on the % scale 0 is the no-effect control and ±100 the full control effect
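GST-E1A and His-tagged CtBP (125 nM each as 5X stock) were preincubated with pin-transferred compound for 2 h at 37 °C in the dark, then glutathione donor and nickel acceptor beads were added for 1 h before AlphaScreen reading.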
The depositor's hits bear a star; ? = inconclusive; . = no result given; & = joins results of further samples; [ ] = another dose, or the depositor's remark. A portion of the library; the hit share may differ from the screen's.

SMILES	TRPV1 potentiator	PINK1 modulator	Sfp inh	Six1-Eya2 inh	D2 potentiator	D2 agonist	CtBP-E1A blk
O=C1c2c(O)cccc2C(C2OC(CO)[C@@H](O)[C@H](O)[C@H]2O)c2cc(CO)cc(O)c21 (some centres not stated)	5	0.8%	.	5	-4	3.5	-1
COc1cc(NC(=O)c2cc(C3CC3)on2)c(OC)cc1Cl	-15	-0.5%	-13%	1	-12	-4.4	4
Nc1cc(=O)[nH]c(N)n1	-17	1.8%	0%	4	-3	-5.6	3
CCCN(CCC)C(=O)C(CCC(=O)O)NC(=O)c1ccccc1 (configuration not stated)	-4&7	-0.2%	17%&16%	2	0	-2.4	2
CN(C)CCOC(=O)C(c1ccccc1)C1(O)CCCC1 (configuration not stated)	22	1.4%	11%&-2%	1	-5	-6.0	-8
CCC12CCCN3CCc4c(n(c5ccccc45)C(O)(C(=O)OC)C1)C32 (configuration not stated)	5	1.0%	-17%	-19	-6	5.3	-1
OCC(O)CN1CCN(c2ccccc2)CC1 (configuration not stated)	4	-0.2%	16%&11%	2	-16	14	1
COc1ccc(S(=O)(=O)Nc2nnc(CC(C)C)s2)cc1	2	5.0%[38.3 µM]	16%&11%&10%	2	3	0.7	5
CCCCOC(=O)c1ccc(N)cc1	10	2.3%	-2%&23%&12%	3	2	-3.9	4
O=C1c2ccccc2C(=O)c2c(O)c(O)cc(O)c21	.	2.0%	-20%&-32%	-11	-11	1.3	?
CC(=O)OCC(=O)C1(O)CCC2C3CCC4=CC(=O)C=CC4(C)C3(F)C(O)CC21C (configuration not stated)	.	13%	.	-2	-2	-3.2	-2
O=c1c(O[C@@H]2O[C@H](CO)C(O)C2O)c(-c2ccc(O)c(O)c2)oc2cc(O)cc(O)c12 (some centres not stated)	.	0.9%	.	-15	-9	-0.9	1
CN1CCN(c2c(F)cc3c(=O)c(C(=O)O)cn4c3c2SCC4)CC1	?	-1.2%	3%&-6%&-25%	-1	13	-1.7	0
CN1CCC(=C2c3ccccc3CC(=O)c3sccc32)CC1	-6&-1&-11	3.6%&-0.1%&0.1%	11%&14%&1%&9%&6%&-22%	0&-4&28	-27&-30&-15	-2.8&-4.6&-5.3	0&-5&0
CCOc1ccc(NC(=S)N2CCC(C(O)(c3ccccc3)c3ccccc3)CC2)cc1	7	-2.0%	23%	-9	-16	-1.4	-13
O=C(O)CCCCCCCC(=O)O	7	2.8%	15%&0%	0	-8	-4.8	3
CN1CCN(CCCN2c3ccccc3Sc3ccc(S(=O)(=O)N(C)C)cc32)CC1	-1	2.6%	15%	-7	-37	-5.6	-11
COc1cc2c(c(OC)c1OC)-c1c(cc(OC)c(OC)c1OC)C[C@H](C)[C@H](C)C2	-29	0.6%	-16%	-6	-12	-3.0	2
CC1CCc2c(N3CCC(O)CC3)c(F)cc3c(=O)c(C(=O)O)cn1c23 (configuration not stated)	-3	1.8%	12%	2	-13	-6.7	-5
COc1cc(C)nc(-n2nc(C)cc2OC)n1	-4	0.8%	?	8	-2	2.6	-19
Nc1ncnc(Nc2ccccc2)n1	-4	0.0%	8%	1	5	2.5	0
O=C(c1ccccc1)c1ccc2n1CCC2C(=O)O (configuration not stated)	7	0.9%	25%&13%	0	-2	-3.9	3
CC1(C)Oc2ccc(C#N)cc2[C@@H](N2CCCC2=O)[C@@H]1O	5	-0.4%	28%	-3	-9	-2.7	7
CCOC(=O)Nc1ccc2c(c1)N(C(=O)CCN1CCOCC1)c1ccccc1S2	2&-18&-9	0.2%&0.1%	-19%&-9%&7%&18%	-5&-8	-8&-2	-1.2&-7.8	-13&3
CN=C(N)NC(=O)Nc1c(C)cccc1C	6	0.0%	15%	4	-6	-1.3	-10

A second format for three compounds above.
mol: O=C(c1ccccc1)c1ccc2n1CCC2C(=O)O (configuration not stated)
  TRPV1 potentiator: 7
  PINK1 modulator: 0.9%
  Sfp inh: 25%&13%
  Six1-Eya2 inh: 0
  D2 potentiator: -2
  D2 agonist: -3.9
  CtBP-E1A blk: 3
mol: CC1(C)Oc2ccc(C#N)cc2[C@@H](N2CCCC2=O)[C@@H]1O
  TRPV1 potentiator: 5
  PINK1 modulator: -0.4%
  Sfp inh: 28%
  Six1-Eya2 inh: -3
  D2 potentiator: -9
  D2 agonist: -2.7
  CtBP-E1A blk: 7
mol: CCOC(=O)Nc1ccc2c(c1)N(C(=O)CCN1CCOCC1)c1ccccc1S2
  TRPV1 potentiator: 2&-18&-9
  PINK1 modulator: 0.2%&0.1%
  Sfp inh: -19%&-9%&7%&18%
  Six1-Eya2 inh: -5&-8
  D2 potentiator: -8&-2
  D2 agonist: -1.2&-7.8
  CtBP-E1A blk: -13&3

Returning to the listing; the 6 compounds before the break are reprinted first.
SMILES	TRPV1 potentiator	PINK1 modulator	Sfp inh	Six1-Eya2 inh	D2 potentiator	D2 agonist	CtBP-E1A blk
COc1cc(C)nc(-n2nc(C)cc2OC)n1	-4	0.8%	?	8	-2	2.6	-19
Nc1ncnc(Nc2ccccc2)n1	-4	0.0%	8%	1	5	2.5	0
O=C(c1ccccc1)c1ccc2n1CCC2C(=O)O (configuration not stated)	7	0.9%	25%&13%	0	-2	-3.9	3
CC1(C)Oc2ccc(C#N)cc2[C@@H](N2CCCC2=O)[C@@H]1O	5	-0.4%	28%	-3	-9	-2.7	7
CCOC(=O)Nc1ccc2c(c1)N(C(=O)CCN1CCOCC1)c1ccccc1S2	2&-18&-9	0.2%&0.1%	-19%&-9%&7%&18%	-5&-8	-8&-2	-1.2&-7.8	-13&3
CN=C(N)NC(=O)Nc1c(C)cccc1C	6	0.0%	15%	4	-6	-1.3	-10
Cc1cc(O)c2c(c1)C(=O)c1cccc(O)c1C2=O	6	0.7%	-7%&13%&-22%	.	.	.	.
C#C[C@]1(O)CC[C@H]2[C@@H]3CCC4=CC(=O)CC[C@@H]4[C@H]3CC[C@@]21CC	-11&-9&-4	-0.6%&1.0%	15%&24%&9%	0&1	-8&-8	1.6&-6.8	0&5
Cc1ccsc1/C=C/C1=NCCCN1C	8	-0.6%&1.1%&0.4%	-1%&21%	2&4&3	-12&-2&0	-3.3&-5.9&0.7	2&3&1
CC[C@]12CCCN3CCc4c(n(c5ccccc45)[C@@](O)(C(=O)OC)C1)[C@@H]32	-6	-0.1%	.	6	-4	-0.4	2
CCC(Cc1c(I)cc(I)c(N)c1I)C(=O)O (configuration not stated)	10	0.0%	-5%	0	-5	-4.7	-11
COc1cc(C(=O)NCCCCCC(=O)O)cc(OC)c1OC	2	2.3%	4%&8%	6	0	-3.0	-4
COc1ccc(Sc2ccc(NC(=O)c3ccccc3Cl)cc2C#N)cc1	3	7.1%	12%	5	-2	-0.3	11
COc1c(O)cc2c(c1O)[C@@H]1O[C@H](CO)[C@@H](O)[C@H](O)[C@H]1OC2=O	-1	1.5%	18%	-2	-6	-2.8	.
CCN(CC)CCOC(=O)C(c1ccccc1)c1ccccc1	9	1.4%	11%&-14%&19%	-9	1	-6.1	-4
CCOC(=O)Nc1ccc(NCc2ccc(F)cc2)nc1N	-14	14%	35µM*	0	4	2.7	?
CCN(CC)S(=O)(=O)c1ccc(C(=O)O)cc1	5	0.0%	5%&12%	-5	-9	-4.0	-13
C/C=C(/C)C(=O)O[C@@H]1c2cc3c(c4c2[C@@]2(CO4)C(=O)C(OC)=C(OC)C=C2C[C@@H](C)[C@H]1C)OCO3	-14	0.1%	13%	0	-16	-3.9	3
CCCc1cc(C(N)=S)ccn1	6	-0.3%	13%&7%	1	0	-2.1	4
CC(C)(C(=O)c1cccnc1)c1cccnc1	.	-0.1%&0.1%	12%	-5	-7	0.4	2
COc1ccccc1OC(=O)Oc1ccccc1OC	.	-3.1%	7%	6	-3	-4.3	4
O=C1CCc2cc(OCCCCc3nnnn3C3CCCCC3)ccc2N1	-16&-5&-8	2.2%	-6%&14%&-7%&18%&-3%	-2	8	-1.3	-4
